Compound activity from PubChem.
Vif A3G = HIV-1 Vif–A3G interaction blockers – biochemical, TR-FRET, GST-Vif 1-94, biotin-A3G peptide, dose response retest, primary screen (AID 1117319). TR-FRET GST-Vif / biotin-A3G peptide binding; higher % means a stronger effect; test concentration not given here; strong numbers were not always called active. inhibition, %; hits with a dose series show IC50 in µM. 0.57% of 260,000 active;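 active = above the screen mean plus three standard deviations and confirmed in dose response; inconclusive = results disagree or hit not tested in dose response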;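 note: Vif residues 1-94 fused to GST binding biotinylated APOBEC3G peptide 110-148; 0% = full assay without inhibitor and 100% = GST in place of GST-Vif; retest series ran down from 100 µM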
A1 inh = inhibitors of the anti-apoptotic protein A1, read as caspase activation. MEF A1-2A-BIM cells, Caspase-Glo 3/7 luminescence, 3 h; percent of clofoctol response, vehicle zero. caspase activation, % (no concentration beside the values). 0.066% of 330,000 active;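 active = over half of replicate activation scores above 10%, or exactly half above 10 with the replicate mean above 10; inconclusive = replicate mean below 10 yet half the replicates above 10; inactive = over half of replicates below 10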;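 note: wells of about 30 µL received 50 nL stock; many hits fall short of the cut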
UCH37 DUB inh = human UCH37 deubiquitinating enzyme inhibition; Q9Y5K5; purified proteasome/UCH37, Ub-AMC cleavage fluorescence; inhibition, % (concentration not given with the values); 0.33% of 330,000 active;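 active = mean of two replicates above 20%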;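 note: 0% = compound-free wells with enzyme and 100% = wells lacking proteasome; stock transfer was 100 nL into about 20 µL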
Target sequence (Q9Y5K5 whole entry, looked up): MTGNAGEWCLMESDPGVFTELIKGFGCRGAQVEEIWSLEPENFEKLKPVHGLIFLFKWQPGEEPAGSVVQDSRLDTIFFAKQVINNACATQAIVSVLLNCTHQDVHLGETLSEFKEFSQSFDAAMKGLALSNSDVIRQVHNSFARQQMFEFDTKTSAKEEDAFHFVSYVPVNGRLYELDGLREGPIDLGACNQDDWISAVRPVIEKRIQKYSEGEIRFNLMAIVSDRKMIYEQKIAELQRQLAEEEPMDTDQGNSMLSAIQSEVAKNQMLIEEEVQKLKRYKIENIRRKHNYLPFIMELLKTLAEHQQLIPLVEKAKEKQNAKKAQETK
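Schedule: 30 min plus 25 min, room temperature / Material: human UCH37 within purified proteasomes / Technique: AMC fluorescence intensity at 355/460 nm / Buffer or medium: pH 7.4 Tris-HCl (50 mM) with ovalbumin, ATP-MgCl2, DTT / Controls: wells without proteasome as full block, compound-free enzyme plus substrate as uninhibited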
E coli growth = blocks Escherichia coli growth. 0.21% of 330,000 active. OD600, 23 h; stronger effect = lower value. OD600 absorbance (test concentration not listed);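 active = OD600 absorbance below the run mean of sample wells minus 3.6 SD, in any replicate, cut at about 0.56 in these data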;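 note: stock transfer was 300 nL into about 60 µL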
HNF4A DNA FP = change in binding of human HNF4 alpha to DNA | P41235 | HNF4a-FITC DNA binding, fluorescence polarization, 1 h | activity change, % at 10 µM | 0.3% of 360,000 active | AID 1224865; in the data active = activity change above about 30%, passing the limit was not always enough;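 note: controls were the assay level and a saturating level of protein; the project sought stronger binding though the title names inhibitors; some compounds called inactive have numbers as strong as hits; positive values seem to mean higher polarization but the record does not say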
Target sequence (P41235 whole entry, looked up): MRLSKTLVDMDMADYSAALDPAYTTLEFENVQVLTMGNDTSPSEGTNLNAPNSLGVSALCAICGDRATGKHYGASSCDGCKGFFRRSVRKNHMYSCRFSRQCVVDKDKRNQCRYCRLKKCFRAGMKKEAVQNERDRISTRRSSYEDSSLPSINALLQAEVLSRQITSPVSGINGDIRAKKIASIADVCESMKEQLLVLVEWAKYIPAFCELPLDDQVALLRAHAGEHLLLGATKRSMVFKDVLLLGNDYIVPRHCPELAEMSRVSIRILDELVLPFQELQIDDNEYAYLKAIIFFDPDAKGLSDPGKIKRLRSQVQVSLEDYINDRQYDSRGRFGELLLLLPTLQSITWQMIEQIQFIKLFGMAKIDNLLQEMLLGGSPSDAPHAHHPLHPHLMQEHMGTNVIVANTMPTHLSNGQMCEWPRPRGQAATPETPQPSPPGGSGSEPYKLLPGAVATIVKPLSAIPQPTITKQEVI
Beta2AR agonist = activates human beta-2 adrenergic receptor causing internalization | Am2.2-beta2AR cells, FAP receptor internalization, flow cytometry; reference of the scale not given here | AID 504454 | response, % (no concentration beside the values) | P07550 | 0.43% of 340,000 active;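 active = response above a set limit, near 3 SD of response in nonfluorescent compounds, cut at about 42% in these data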;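 note: stock transfer was 100 nL into about 11 µL; a reference agonist was the positive control; negative values mostly stem from fluorescent compounds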
LANA-H2A inh = blocks KSHV LANA binding to histone H2A/H2B; AID 2629; 0.6% of 320,000 active; cell-free LANA-H2A/H2B peptide, fluorescence polarization; Q9QR71; inhibition, % (concentration not given with the values); in the data active = inhibition mostly above about 10%, no sharp cut-off; inactive = mostly below about 6.7%;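 note: stock transfer was 7.5 nL into about 10 µL; 0% = median of vehicle wells and 100% = median of positive control wells; one replicate is shown; the record names a cut of 25% in any replicate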
An asterisk follows results filed as active; ? = inconclusive; . = no result given. Outcome played no part in choosing rows (roughly 2.1% active in at least one column).

SMILES | Vif A3G | A1 inh | UCH37 DUB inh | E coli growth | HNF4A DNA FP | Beta2AR agonist | LANA-H2A inh
Cc1ccc(S(=O)(=O)Cc2ccc(C(=O)N3CCc4ccccc4C3)o2)cc1 | 10% | 1.2 | 5.4 | 0.74 | -16 | -36 | 1.6
CCOc1ccc(NC(=O)CN2C(=O)c3ccccc3C2=O)cc1 | . | 1.7 | 4.0 | 0.64 | 0.5 | -2 | 1.1
Cc1cccc(C(=O)Nc2ccn(C)n2)c1 | -5% | . | 7.1 | 0.69 | -2.1 | -3 | .
CC(=O)Nc1sc2c(c1C#N)CCC(C)C2 (stereo unspecified) | 2% | 0.1 | 5.0 | 0.67 | 2.6 | -7 | -1.4
Cn1sc(NC(=O)c2ccccc2)nc1=O | -3% | -3.2 | 4.5 | 0.67 | 4.2 | 5 | -9.9
CN(C)S(=O)(=O)n1cnc([C@@H]2[C@@H]3C(=O)OC[C@@H]3C[C@]23N=CN(Cc2ccccc2)C3=O)c1 | . | 0.3 | 1.8 | . | 5.6 | 3 | 3.7
Cc1ccnc(N=O)c1 | 0% | . | -0.4 | 0.71 | -3.7 | 9 | .
Cc1ccsc1C=C1C(=O)c2ccccc2C1=O | -1% | 0.3 | 5.0 | 0.68 | 1.1 | -4 | 1.0
Cc1cc(C)cc(Oc2nc(C(F)(F)F)nc3ccccc23)c1 | 28% | 0.5 | 4.0 | 0.71 | 1.7 | -16 | 4.2
CCOC(=O)c1c(NC2=NS(=O)(=O)c3ccccc32)sc2c1CCCCC2 | . | -1.1 | -95 | 0.7 | 1.0 | -1 | -4.5
O=C(O)c1ccc(-n2c(-c3cc(-c4ccco4)[nH]n3)n[nH]c2=S)cc1 | 66% | 0.2 | 2.6 | 0.69 | -18 | -1 | 4.3
COc1ccc(/C=N/NC(=O)c2csc(-n3nc(C)cc3C(F)(F)F)n2)cc1 | 4% | 0.3 | . | . | -1.6 | -10 | -1.6
NS(=O)(=O)c1ccc(NC(=O)/C(=C/c2ccncc2)NC(=O)c2ccccc2)cc1 | 0% | 0.5 | 4.7 | 0.67 | 0.1 | 3 | 1.1
COc1ccc(-c2oc3ncnc(NCCN4CCOCC4)c3c2-c2ccc(OC)cc2)cc1 | -4% | 0.6 | -84 | 0.68 | -0.8 | 4 | -1.1
CCOc1ccc(NS(=O)(=O)c2cc(OCC(N)=O)c(C)cc2Cl)cc1 | . | -0.5 | 6.6 | 0.66 | -0.3 | -3 | 1.8
CN(CC(=O)Nc1ccc(S(=O)(=O)N2CCCC2)cc1)CC(=O)Nc1cccc(F)c1 | 3% | 0.0 | 2.3 | 0.68 | -1.6 | -2 | -1.1
O=C(Nc1cccc(NC(=O)c2ccccc2Cl)c1)c1cccs1 | -1% | -0.7 | 3.0 | 0.6 | -2.5 | -1 | -6.2
O=C(C(c1ccccc1)c1ccccc1)N1CCN(Cc2ccccn2)CC1 | 3% | -0.4 | 5.5 | 0.75 | 1.9 | 5 | -3.7
COc1cc(/C=N\NC(=O)CC(=O)NCCc2ccccc2)ccc1O | 7% | 0.2 | . | . | -3.0 | 7 | 1.4
COc1ccc(S(=O)(=O)N2CCCCC2)cc1NC(=O)c1cc(C)on1 | -4% | 0.2 | 2.5 | 0.69 | -0.4 | -7 | 7.3
CC(C)OCC(O)CN (stereo unspecified) | 0% | -0.3 | 1.5 | 0.72 | 0.3 | 0 | -0.8
O=C(COc1cccc(Br)c1)Nc1ccc(Cl)c(S(=O)(=O)N2CCOCC2)c1 | -8% | -0.5 | 5.0 | 0.68 | 0.1 | 1 | -2.8
COc1ccccc1OC(C)C(=O)N1CCC(Cc2ccccc2)CC1 (stereo unspecified) | . | -0.2 | 2.0 | 0.7 | 4.2 | -3 | 0.3
C/C(=N\NC(=O)C(=O)Nc1cccc(Cl)c1)c1ccncc1 | 1% | -3.7 | . | . | 3.9 | -5 | -4.4
COc1ccc(C2CC(c3ccccc3)=NN2C(=O)COC(=O)c2ccc(Cl)nc2)cc1 (stereo unspecified) | . | -0.5 | 17 | 0.73 | -2.2 | -1 | -3.9
CCOC(=O)c1ccc2nc3c(cc2c1)CCS3 | -2% | -1.6 | -4.1 | 0.72 | 0.3 | 1 | -3.2
O=C(NOCc1ccccc1)c1ccccc1 | . | -2.0 | 1.8 | 0.61 | 1.4 | 3 | -7.8
CSc1ccc(CCNC(=O)CCc2nnc3ccc(N4CCC5(CC4)OCCO5)nn23)cc1 | . | 0.6 | 2.5 | 0.66 | 5.7 | 7 | 1.6
O=C(O)C(Cc1ccc(O)cc1)N1C(=O)c2ccccc2C1=O (stereo unspecified) | 4% | 1.9 | 3.2 | 0.7 | -0.7 | -3 | -0.9
Cc1occc1C(=O)N1CCN(c2ccc(Cl)c(Cl)c2)CC1 | 4% | -0.4 | 3.0 | 0.68 | 7.5 | -2 | 5.0

Further structures:
SMILES | Vif A3G | A1 inh | UCH37 DUB inh | E coli growth | HNF4A DNA FP | Beta2AR agonist | LANA-H2A inh
COC(=O)c1ccccc1CSc1nsc(/C=C/N(C)C)c1C#N | -13% | 1.0 | 6.3 | 0.68 | 55* | 16 | -3.5
O=C(C1=C(O)C(=O)N(CCc2ccccc2)C1c1cccs1)c1ccco1 (stereo unspecified) | -7% | 0.8 | 7.3 | 0.66 | 5.1 | -3 | 0.2
Cc1cc(C)nc(NC(=O)Cc2cccs2)n1 | 10% | 0.0 | 0.1 | 0.66 | 0.3 | 5 | -3.3
CCOC(=O)c1cnc2ccc(Cl)cc2c1NCCN(C)C | 3% | 0.3 | 5.4 | 0.73 | -5.7 | 0 | 11
O=C(NC1CCCCC1)c1ccccc1NC(=S)NC(=O)C1CCC1 | . | 0.1 | 3.9 | 0.69 | 0.9 | -4 | 7.2
O=C(O)CCN1CC2([N+](=O)[O-])CC=C(OCCO)C([N+](=O)[O-])(C1)C2 (stereo unspecified) | 1% | -0.1 | 1.2 | 0.68 | 0.9 | 1 | -4.3
COc1cc(C(=O)NCc2cccs2)ccc1OCc1c(C)noc1C | . | 2.6 | 1.2 | 0.66 | 1.1 | -10 | -5.4
Nn1cc(-c2ccccc2)nc1SCC(=O)N1CCN(S(=O)(=O)c2ccc(Cl)cc2)CC1 | ? | 0.5 | 1.4 | 0.69 | 0.7 | -9 | 4.3
COCCn1c(SCc2c(F)cccc2Cl)nc2c1c(=O)[nH]c(=O)n2C | 0% | 0.0 | 2.1 | 0.64 | -0.8 | 2 | 0.2
c1ccc(CN2CCC(N3CCN(Cc4ccc5c(c4)OCO5)CC3)CC2)cc1 | 10% | -0.7 | 3.1 | 0.69 | 1.0 | 5 | 2.7
CCN(CC(=O)NC(c1ccccc1)c1ccccc1)Cc1nc2ccccc2c(=O)[nH]1 | 4% | -0.1 | 0.5 | 0.68 | -1.8 | 6 | -1.0
CCCc1cc(=O)oc2cc(C)cc(OCC(=O)Nc3ccc(CN4CCOCC4)cc3)c12 | . | 0.3 | -69 | 0.67 | 6.1 | 11 | -3.9
COc1ccc(C(=O)/C=C/c2cn(CN3CCN(C)CC3)c3ccccc23)cc1 | 1% | -1.0 | -5.8 | 0.63 | 8.8 | -3 | -3.0
O=C(Nc1ccccc1)c1cc2n(n1)C(C(F)(F)F)CC(C1CC1)N2 (stereo unspecified) | . | -0.4 | 1.7 | 0.69 | -0.3 | -1 | -0.5
O=C(O)c1nn(-c2ccccc2-c2n[nH]c(=O)[nH]c2=O)c(=O)[nH]c1=O | . | -0.5 | 3.9 | 0.69 | . | . | 6.2
O=S1(=O)CCC(NC(=S)NCCNC(=S)NC2CCS(=O)(=O)C2)C1 (stereo unspecified) | . | -0.7 | 3.4 | 0.69 | 0.3 | 0 | -8.4
CC(=O)c1c(C)[nH]c(C(=O)CN2C(=O)NC(C)(CCC(C)C)C2=O)c1C (stereo unspecified) | -1% | -1.3 | 1.5 | 0.63 | -3.0 | 7 | 1.9
CCC(CC)C(=O)Nc1nnc(S(=O)(=O)N2c3ccccc3CC2C)s1 (stereo unspecified) | . | 0.6 | 4.7 | 0.74 | 1.4 | -5 | -2.3
CC(C)C1N(c2ccccc2)C(N)=C(C#N)C1(C#N)C#N (stereo unspecified) | -4% | 1.0 | 0.2 | 0.71 | 4.6 | -11 | 0.9
O=C(OCc1cccc([N+](=O)[O-])c1)c1cc2ccccc2oc1=O | 0% | -0.2 | 1.4 | 0.62 | -3.9 | -1 | -0.3
O=C(Nc1ccccc1)C1=C[C@@H](c2ccccc2)C[C@@H](OCc2ccc(CO)cc2)O1 | 8% | 0.0 | 0.7 | . | 3.2 | 0 | -3.8
COc1cc(/C=C(\NC(C)=O)C(=O)Nc2cccc(O)c2)ccc1OC(C)=O | ? | -0.1 | . | . | 37* | 11 | -0.8
COc1ccc(C(=O)Nc2cccc3cccnc23)cc1OC | -1% | -0.9 | 0.9 | 0.71 | 4.1 | 11 | -6.5
Cc1ccc(OC(C)C(=O)Nc2ccc3c(c2)n(C)c(=O)n3C)c(C)c1 (stereo unspecified) | -3% | 1.1 | 3.2 | 0.67 | -3.6 | -2 | -2.8
O=C(Nc1ccccc1F)C1CCN(C(=O)Cc2ccccc2)CC1 | -2% | 0.9 | 0.9 | 0.69 | 1.1 | -8 | -4.8
CC(=O)c1cccc(NC(=O)Nc2ccc(C(=O)N3CCCC3)cc2)c1 | 0% | -0.3 | 3.4 | 0.72 | 4.6 | 3 | 0.9
COc1ccc(NS(=O)(=O)c2cccc(-c3nnc4n3CCCCC4)c2)cc1 | -8% | -0.4 | 1.7 | 0.73 | 1.7 | 4 | -4.0
CN1CCN(S(=O)(=O)c2cccc(C(=O)Nc3ccccc3N3CCCCC3)c2)CC1 | -4% | 0.5 | -14 | 0.68 | -3.8 | 6 | -1.6
O=C(NC1CCN(c2ncccn2)CC1)c1c(F)cccc1F | . | -0.5 | -8.1 | 0.7 | 2.0 | -8 | -3.6
COc1ccc(N2C(=S)N=C(Nc3cccc(C)c3)C23CCCCC3)cc1 | 2% | -0.2 | 3.5 | 0.7 | 3.8 | 2 | 2.3
CCN(CC)CCN(C(=O)C1=COCCO1)c1nc2cc(C)cc(C)c2s1 | . | -0.3 | 4.8 | 0.68 | -0.8 | 9 | -0.4
O=C(COC(=O)C12CC3CC(CC(C3)C1)C2)Nc1nc2c(F)c(F)c(F)cc2s1 | . | 0.2 | . | . | 3.4 | 3 | 6.7
O=C(Cc1nc2ccccc2[nH]1)c1ccc(Br)cc1 | . | 0.3 | -7.0 | 0.69 | -1.3 | 21 | -2.7

4 consecutive records out of the list so far:
SMILES | Vif A3G | A1 inh | UCH37 DUB inh | E coli growth | HNF4A DNA FP | Beta2AR agonist | LANA-H2A inh
COc1ccc(N2C(=S)N=C(Nc3cccc(C)c3)C23CCCCC3)cc1 | 2% | -0.2 | 3.5 | 0.7 | 3.8 | 2 | 2.3
CCN(CC)CCN(C(=O)C1=COCCO1)c1nc2cc(C)cc(C)c2s1 | . | -0.3 | 4.8 | 0.68 | -0.8 | 9 | -0.4
O=C(COC(=O)C12CC3CC(CC(C3)C1)C2)Nc1nc2c(F)c(F)c(F)cc2s1 | . | 0.2 | . | . | 3.4 | 3 | 6.7
O=C(Cc1nc2ccccc2[nH]1)c1ccc(Br)cc1 | . | 0.3 | -7.0 | 0.69 | -1.3 | 21 | -2.7
